A488 autofl: compound autofluorescence in A488 spectral region. compound autofluorescence, A488 spectral region, dye equivalency; hits give high values. max dye equivalency, M. 59,000 compounds, 0.1% hits; active = above 10 nM dye equivalent; inconclusive = 1 to 10 nM; inactive = 1 nM or less; about half of its hits are not listed in these tables;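 further: highest value over a series up to 38 µM; compound alone in buffer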
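Spectroscopic profiling in the A488 region: compounds in pH 8.0 Tris (100 mM), 15 min RT, CCD imaging with 480 nm excitation and 540 nm emission; responses normalized against A488 dye standards.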
AID923: qHTS Assay for Allosteric/Competitive Inhibitors of Caspase-1: Spectroscopic Profiling in AFC Spectral Region; 75,000 compounds, 1.1% hits; compound fluorescence, AFC spectral region (405/520 nm); almost no hit is shown here; Potency, µM (doses to about 57.5 µM), for the others: at the top dose fluorescence increase, usual class: activators; active means well fitted activation curve with a large enough effect; inconclusive means small, poorly fitted or top-dose-only effect;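 further: potency means the concentration at half of the fitted maximal effect; 0% is about no effect; scaled to a free AFC standard on each plate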
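Compound autofluorescence profiled at 405 nm ex/520 nm em during kinetic caspase 1 run (50 nM enzyme, 5 uM Ac-WEHD-AFC, HEPES pH 7.5, 10 mM DTT). Titration up to 57 uM; baseline from regression intercept, normalized to AFC standard curve.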
Resorufin autofl: compound fluoresces in the resorufin spectral region. Compound fluorescence, resorufin region 547/598 nm, buffer; hits give high values. max dye-equivalent concentration, M. 59,000 compounds, 0.04% hits. AID 588; active = above 10 nM dye equivalent; inconclusive = 1 to 10 nM; inactive = 1 nM or less; a few of its hits are not listed in these tables; further: highest value over a series up to 38 µM
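Dye-equivalent concentration values derive from comparing each well's 547/598 nm fluorescence against resorufin standards included on every plate. Incubation was 15 min at room temperature in 100 mM Tris, pH 8.0.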
TSHR ag: activates the human thyroid stimulating hormone receptor; 73,000 compounds, 0.48% hits; Potency, µM (highest dose often 57.1 µM), for the others: top-dose activation, usual class: activators; P16473; AID 926; HEK293-CNG-TSHR cells (CNG channel as cAMP sensor), membrane potential dye, cAMP; active = well fitted activation curve of enough size with the parental cells flat; inconclusive = any curve in the parental cells; inactive = parental cells flat and receptor cells flat or falling; further: potency means the concentration at half of the fitted maximal effect; % of control where 0% means no effect; weak receptor curves with flat parental cells got no call and are not listed
Target sequence (P16473 whole entry, looked up): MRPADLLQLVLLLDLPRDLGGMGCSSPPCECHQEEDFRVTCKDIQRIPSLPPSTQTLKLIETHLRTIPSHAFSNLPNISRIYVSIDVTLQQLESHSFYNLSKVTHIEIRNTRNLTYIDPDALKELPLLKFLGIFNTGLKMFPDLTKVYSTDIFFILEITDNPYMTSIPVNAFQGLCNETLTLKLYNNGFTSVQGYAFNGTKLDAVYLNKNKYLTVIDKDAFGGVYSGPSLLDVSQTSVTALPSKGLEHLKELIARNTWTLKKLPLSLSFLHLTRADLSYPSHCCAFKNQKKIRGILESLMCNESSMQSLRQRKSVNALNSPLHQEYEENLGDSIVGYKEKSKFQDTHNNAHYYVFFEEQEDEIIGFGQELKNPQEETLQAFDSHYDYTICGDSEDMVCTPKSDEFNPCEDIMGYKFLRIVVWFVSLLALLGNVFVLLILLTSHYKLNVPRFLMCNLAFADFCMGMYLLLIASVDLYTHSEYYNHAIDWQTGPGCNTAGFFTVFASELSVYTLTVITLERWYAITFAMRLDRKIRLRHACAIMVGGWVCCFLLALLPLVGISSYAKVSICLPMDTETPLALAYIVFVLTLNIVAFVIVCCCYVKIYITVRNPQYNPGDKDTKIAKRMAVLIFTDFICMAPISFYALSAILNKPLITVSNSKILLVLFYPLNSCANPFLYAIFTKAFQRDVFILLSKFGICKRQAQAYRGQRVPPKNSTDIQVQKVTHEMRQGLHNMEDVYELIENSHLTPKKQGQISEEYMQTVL
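cAMP rise detected as CNG-channel membrane depolarization by fluorescent dye (emission 590 nm), 30 min after compound, following 60 min dye loading containing 100 uM RO 20-1724 at room temperature. Cells: TSHR/CNG HEK 293, with parental CNG HEK 293 as control.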
A647 autofl: compound fluoresces in the A647 spectral region. Compound fluorescence, A647 channel (570/671 nm), Tris buffer. max dye-equivalent concentration, M. 59,000 tested, under 10 active. AID 592; active means above 1 µM dye equivalent; inconclusive means 0.1 to 1 µM; inactive means 0.1 µM or less;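 further: values scaled relative to a standard on each plate; highest value over a series up to 38 µM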
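Each compound's intrinsic fluorescence at 570 nm excitation and 671 nm emission is measured across its concentration series in 100 mM Tris, pH 8.0, after 15 min at room temperature, and reported relative to an A647 curve.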
* = called active by the depositor; i = inactive; ? = inconclusive; / = not tested or not shown; & = joins results of further samples; [ ] = remark or other dose.

#	SMILES	A488 autofl	AID923	Resorufin autofl
1	CC(C)(O)/C=C\C(=O)[C@](C)(O)[C@H]1[C@H](O)C[C@]2(C)[C@@H]3CC=C4[C@@H](C=C(O)C(=O)C4(C)C)[C@]3(C)C(=O)C[C@@]12C	i	-0.8%[11.5 µM]	i
2	c1ccc2c(c1)OC[C@@H](C1=NCCN1)O2	i	-3.8%	i
3	CCCCn1c(O)c(C=NC2CCCCC2N)c(=O)[nH]c1=O (stereo not drawn)	i	-1.5%	i
4	Cc1ccc2c(c1)C1CN(C)CCC1N2C(=O)c1ccco1 (stereo not drawn)	i	0.8%	i
5	COc1ccc2c(c1)c(C(=O)CN1CCN(C)CC1)c(C)n2Cc1ccccc1	i	-0.7%	i
6	CCN(CC)C(=O)N[C@H]1C[C@H]2c3cccc4[nH]cc(c34)C[C@@H]2N(C)C1	i	-0.6%	i
7	O=C1C2CCN(CC2)C1Cc1ccc(OCCOc2ccccc2)cc1 (stereo not drawn)	i	-1.2%	i
8	COc1ccc(CCn2c(O)c(C=NCCCN(C)C)c(=O)[nH]c2=O)cc1OC	i	0.8%	i
9	CC(=O)OCC(=O)[C@@H]1CC[C@H]2[C@H]3CC[C@H]4C[C@@H](O)CC[C@]4(C)[C@@H]3C(=O)C[C@@]12C	i	-0.6%[25.7 µM]	i
10	COc1ccc(-n2c(=O)[nH]c3ccccc3c2=O)c(OC)c1	i	1.2%	i
11	CC1CC2(O)c3nonc3CCC2N1O (stereo not drawn)	i	1.2%	i
12	C#CCN(C)C(C)Cc1ccccc1 (stereo not drawn)	i	/	i
13	NCCc1c[nH]c2ccc(O)cc12	i	1.1%	i
14	c1ccc(CCCN2CCN(CCOC(c3ccccc3)c3ccccc3)CC2)cc1	i	-1.0%&-2.9%	i
15	CCC[N+](=O)[O-]	/	1.2%	/

#	TSHR ag	A647 autofl
1	-3%[11.4 µM]	2.7e-09
2	11%	3e-09&8.4e-09
3	16%	1e-09
4	-2%[11.4 µM]	3.3e-08
5	?	5.7e-09
6	-2%	1e-09
7	-8%	6.9e-09
8	-2%	2.6e-08
9	-12%[25.6 µM]	1.1e-08
10	-8%	1e-09
11	-10%	3.4e-09
12	/	1e-09
13	?	7.3e-09&2e-08
14	-2%	4.9e-08
15	-10%	/

(continued)
#	SMILES	A488 autofl	AID923	Resorufin autofl
16	CCC(=NCC1CCCO1)c1c(O)n(-c2ccccc2)c(=O)[nH]c1=O (stereo not drawn)	i	-1.3%	i
17	O=C(O)CN1C(=O)CC(Cc2ccc(Cl)cc2)C1=O (stereo not drawn)	i	0.3%	i
18	CC(=O)OC1(c2ccccc2)CCN(C)C2CCCCC21 (stereo not drawn)	i	0.8%	i
19	Cc1cccc(N2CCc3c2nc2ccccc2c3N)c1	i	0.3%&2.1%	i
20	Cc1cc(-c2cc(C)c(N)c(C)c2)cc(C)c1N	/	3.4%	/
21	OCCNc1c2c(nc3ccccc13)CCCC2	i	0.7%	i
22	COCC(=O)N1CCC2(CCCN(Cc3ccncc3)C2)CC1	i	20%	i
23	Cc1c(C(=O)c2ccc3ccccc3c2)c2cccc3c2n1[C@H](CN1CCOCC1)CO3	/	-1.1%	/
24	COc1cc(Br)cc(CN2CCN(C)CC2)c1O	/	1.9%	/
25	CN1[C@@H]2CCC[C@H]1CC(=O)C2	i	-2.8%[25.7 µM]	i
26	CCC(=NCCN1CCOCC1)c1c(O)n(-c2ccccc2C)c(=O)[nH]c1=O	i	-1.0%	i
27	COC(=O)c1cc(COc2cc(C)cc3oc(=O)c4c(c23)CCC4)c(C)o1	i	-0.2%	i
28	CCCC(=O)Cl	/	0.2%	/
29	CCOC(=O)C1SC2(C(F)(F)C(F)F)CC1(O)c1c(c(OC)c3occc3c1OC)O2 (stereo not drawn)	/	0.0%	/
30	CNP1(NC)=Nc2nn(-c3ccccc3)c(N)c2C(c2ccccc2)=N1	i	-0.4%	i

#	TSHR ag	A647 autofl
16	0%	4.4e-09
17	?	1e-09
18	8%	1e-09
19	-51%[inhibitor]	1.1e-09
20	?	/
21	12%	3.2e-08
22	2%	1e-09
23	13%	/
24	-12%	/
25	-6%[25.6 µM]	1.5e-08
26	15%	2e-08
27	?	4.4e-08
28	?	/
29	29%	/
30	11%	1e-09

Six entries from above, reformatted.
#25 CN1[C@@H]2CCC[C@H]1CC(=O)C2
#19 Cc1cccc(N2CCc3c2nc2ccccc2c3N)c1
#18 CC(=O)OC1(c2ccccc2)CCN(C)C2CCCCC21 (stereo not drawn)
#23 Cc1c(C(=O)c2ccc3ccccc3c2)c2cccc3c2n1[C@H](CN1CCOCC1)CO3
#21 OCCNc1c2c(nc3ccccc13)CCCC2
#17 O=C(O)CN1C(=O)CC(Cc2ccc(Cl)cc2)C1=O (stereo not drawn)

assay / compound | 25 | 19 | 18 | 23 | 21 | 17
A488 autofl | i | i | i | / | i | i
AID923 | -2.8%[25.7 µM] | 0.3%&2.1% | 0.8% | -1.1% | 0.7% | 0.3%
Resorufin autofl | i | i | i | / | i | i
TSHR ag | -6%[25.6 µM] | -51%[inhibitor] | 8% | 13% | 12% | ?
A647 autofl | 1.5e-08 | 1.1e-09 | 1e-09 | / | 3.2e-08 | 1e-09

Next section
#	SMILES	A488 autofl	AID923	Resorufin autofl
31	COc1ccc(NC(=O)N2CC3(CCN(C(=O)Oc4ccccc4)CC3)C2)cc1	i	3.8%	i
32	COC(C)(C)C	/	-1.4%	/
33	Cc1ccc(P(=O)(O)c2ccc(C)cc2)cc1	/	-3.0%	/
34	CC(C)(C)OO	/	-6.7%&-0.4%	/
35	NC(=NCCC[C@@H](N)C(=O)O)N[N+](=O)[O-]	i	/	i
36	CC(C)Cn1cc(C(=O)N2CCC3(CC2)OCCO3)c2c3ccccc3n(C)c2c1=O	i	-1.4%	i
37	C=C(C)CN1CC[C@@]23c4c5ccc(O)c4O[C@H]2c2[nH]c4ccccc4c2C[C@]3(O)[C@@H]1C5	/	-1.9%	/
38	CS(=O)(=O)N1CCC2(CC1)CN(Cc1ccncc1)C2	i	1.2%	i
39	CCCCn1c(O)c(C(C)=NCc2ccc(F)cc2)c(=O)[nH]c1=O	i	0.1%	i
40	C[C@@H](O)CN(CCN(C[C@@H](C)O)C[C@@H](C)O)C[C@@H](C)O.O=[N+]([O-])O.[Cu]	i	-0.9%[11.5 µM]	i
41	CC(C)[C@]12CC(=O)[C@H](C)[C@H]1C2	/	1.2%	/
42	C[N+]12CN3CN(CN(C3)C1)C2	i	-2.7%	i
43	O=C(CN1C(=O)CN=C(c2ccccc2Cl)c2cc(Cl)ccc21)NCc1ccco1	i	-0.2%	i
44	COc1ccc2[nH]cc(CCN(C)C)c2c1	i	0.7%	i
45	CCN1CCN(Cc2ccccc2C)CC1	/	-0.1%	/

#	TSHR ag	A647 autofl
31	-5%	2.4e-08
32	2%	/
33	?	/
34	-8%&2%	/
35	?	1.4e-08
36	10%	8.1e-09
37	-1%	/
38	25%	1.9e-09
39	/	1.3e-08
40	-2%[11.4 µM]	1e-09
41	?	/
42	-1%	2e-08
43	16%	4e-09
44	9%	1.6e-08&1e-09
45	4%	/

(more compounds)
#	SMILES	A488 autofl	AID923	Resorufin autofl
46	CC(C)OC(=O)C1C(=O)NC2(C)CC1c1ccccc1O2 (stereo not drawn)	i	1.5%	i
47	C[C@H](Br)CN(C[C@H](C)Br)c1ccc2c(c1)Cc1ccccc1-2	i	2.2%[11.5 µM]	i
48	O=C(NC[C@H]1CCCCN1)c1cc(OCC(F)(F)F)ccc1OCC(F)(F)F	i	-0.7%&1.8%	i
49	OC[P+](CO)(CO)CO	/	5.0%	/
50	O=c1c2ccccc2nc(-c2ccco2)n1-c1ccncc1	/	2.3%	/
51	CNC[C@H](O)c1ccc(O)c(OC)c1	i	-1.0%[25.7 µM]	i
52	[O]=[Cr](=[O])([OH])[O][Cr](=[O])(=[O])[OH]	/	-4.6%&-1.0%&-4.6%	/
53	CCN1CCN(Cc2nnnn2C(C)(C)C)CC1	i	4.7%	i
54	O=C(Nc1ccccc1OC(=O)N1CCOCC1)N1CCOCC1	i	-0.5%	i
55	CN(C)[C@@H]1C(=O)C(C(N)=O)=C(O)[C@]2(O)C(=O)C3=C(O)c4c(O)cccc4[C@](C)(O)[C@H]3C[C@@H]12	i	-0.8%[11.5 µM]	i
56	O=C(O)C[O][Sb][O]CC(=O)O	i	1.6%[11.5 µM]	i
57	COc1ccc(CC[n+]2cc(/N=C(\C)[O-])on2)cc1OC	i	-2.1%	i
58	O=C(CNS(=O)(=O)c1cccs1)N1CCC2(CC1)OCCO2	i	0.3%	i
59	O=C(NCc1ccccn1)c1ccccc1Cl	i	-2.1%	i
60	CCCCn1c(O)c(C(C)=NCCc2ccccc2)c(=O)[nH]c1=O	i	-0.3%	i

#	TSHR ag	A647 autofl
46	1%	1e-09
47	-5%[11.4 µM]	4.6e-08
48	?	2.1e-08
49	0%	/
50	1%	/
51	-5%[25.6 µM]	1.3e-09
52	?	/
53	1%	1e-09
54	-10%	1e-09
55	-7%[11.4 µM]	1.6e-08
56	-3%[11.4 µM]	1e-09
57	-8%[11.4 µM]	3.3e-09
58	-4%	1e-09
59	6%	1e-09
60	?	6.7e-09

(continued)
#	SMILES	A488 autofl	AID923	Resorufin autofl
61	CNCCc1nc(N)n[nH]1	i	/	i
62	Cc1ccccc1-n1c(O)c(C=Nc2ccc(N(C)C)cc2)c(=O)[nH]c1=O	/	5.9%	/
63	Nc1ccc(Sc2ccc(N)cc2)cc1	/	1.5%	/
64	CN1C(=O)c2ccccc2Sc2ccc(C(=O)N3CCC4(CC3)OCCO4)cc21	i	1.1%	i
65	OC(c1ccccc1)(c1ccccc1)C1CCNCC1	i	-2.4%[25.7 µM]	i
66	O=C(c1cc2c(s1)-c1ccccc1OC2)N1CCC2(CC1)OCCO2	/	7.1%	/
67	CCS(=O)(=O)N1CCC(C(=O)N2CCC3(CC2)OCCO3)CC1	i	0.0%	i
68	CN1CCc2nc3sc(C#N)c(N)c3c(-c3cccs3)c2C1	i	/	i
69	CCCC/C=C/[C@@H](NP(=O)(c1ccccc1)c1ccccc1)c1ccccc1OC	/	-3.1%	/
70	ClCCOCCCl	/	0.6%	/
71	Nc1ccc(Br)cc1	/	0.3%	/
72	CC(=O)C1C(=O)NC23CCCCC2C1c1ccccc1O3 (stereo not drawn)	i	-4.0%	i
73	N#CC1=C(N)Oc2c(c(=O)oc3ccccc23)C1c1cccnc1 (stereo not drawn)	i	-1.5%	i
74	C=CCn1c(O)c(C(CC)=Nc2ccc(N(CC)CC)cc2)c(=O)[nH]c1=O	i	-1.2%	i
75	Nc1ccccc1C(=O)O	/	0.6%	/
76	O=c1[nH]c(=O)n(CCc2ccccc2)c(O)c1C=NCCN1CCNCC1	i	/	i

#	TSHR ag	A647 autofl
61	/	1e-09
62	-15%	/
63	?	/
64	1%	1.5e-08
65	-11%[25.6 µM]	6.1e-09
66	0%	/
67	5%	6.1e-09
68	/	9e-08
69	?	/
70	-8%	/
71	0%	/
72	/	2.6e-09
73	/	2.1e-08
74	4%	6.2e-09
75	1%	/
76	/	4.5e-09

Source: PubChem BioAssay

Not all compounds are listed; the hit share may differ from the screen's.
